# Screening data deposited in PubChem by several laboratories.
# FGF22 binding: FGF22 (human) thermal shift binding. Q9HCT0. recombinant FGF22 thermal shift, SYPRO orange fluorescence; percent of sucrose octasulfate shift, DMSO zero. calls only at 9.99 µM. hit rate 1.5% among 340,000;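 active means melting point raised past a set limit in the mean and every replicate; three in four hits are not shown here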
# Target sequence (Q9HCT0 whole entry, looked up): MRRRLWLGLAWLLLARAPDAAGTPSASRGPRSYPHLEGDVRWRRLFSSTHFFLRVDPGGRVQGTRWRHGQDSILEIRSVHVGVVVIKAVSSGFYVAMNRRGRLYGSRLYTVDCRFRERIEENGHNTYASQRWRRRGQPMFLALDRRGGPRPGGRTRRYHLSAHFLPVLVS
# Bfl-1 A1 inh: inhibitors of the anti-apoptotic protein A1, read as caspase activation. MEF A1-2A-BIM cells, Caspase-Glo 3/7 luminescence, 3 h; percent of clofoctol response, vehicle zero. caspase activation, % (test concentration not listed). hit rate 0.066% among 330,000. AID 2462;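 active means over half of replicate activation scores above 10%, or exactly half above 10 with the replicate mean above 10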;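 further: wells of about 30 µL received 50 nL stock; many hits fall short of the cut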
# Ecoli rRNA inh: selective bacterial rRNA inhibition in E. coli. E. coli WT GFP vs humanized-ribosome RFP mutants, fluorescence, 24 h; hits give low values; DMSO median 0, no signal -100. GFP signal change (wild-type ribosome), % (test concentration not listed). hit rate 1.6% among 350,000;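 active means significant combined selectivity score with lowered wild-type GFP, culture density cut under 30%, mutant RFP and density less affected; inactive means any of these conditions unmet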; further: one replicate is shown; some compounds called inactive have numbers as strong as hits
# Ecoli growth: inhibitors of Escherichia coli growth | OD600, 23 h; hits give low values | OD600 absorbance (test concentration not listed) | hit rate 0.21% among 330,000 | AID 1053175;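 active means OD600 absorbance below the run mean of sample wells minus 3.6 SD, in any replicate, cut at about 0.56 in these data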;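 further: stock transfer was 300 nL into about 60 µL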
# Beta cell apopt: blocks beta cell apoptosis; INS-1E cytokine-induced death, ATP luminescence, 48 h; percent of positive-control rescue, neutral wells zero; protection from apoptosis, % (concentration not given with the values); hit rate 0.8% among 300,000;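 active means all replicates at 75% or more, or half of them and the mean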;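 further: 0% = cytokine-treated negative control wells and 100% = positive control rescue; higher means more ATP so stronger rescue from cytokine killing; wells of about 40 µL received 100 nL stock; the first replicate is given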
# AF4-AF9 inh: MLL-AF4/AF9 protein interaction inhibition | AlphaScreen, biotin-AF4 peptide binding to FLAG-AF9 | inhibition, % at 10 µM | P42568 | hit rate 0.47% among 350,000;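 active means every replicate reaching a set inhibition limit, whatever the replicate mean, cut at about 25% in these data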;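 further: 0% = plate neutral control median and 100% = total signal loss; the record names both 10 and 1 µM as test concentration; the first replicate is given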
# Target sequence (P42568 whole entry, looked up): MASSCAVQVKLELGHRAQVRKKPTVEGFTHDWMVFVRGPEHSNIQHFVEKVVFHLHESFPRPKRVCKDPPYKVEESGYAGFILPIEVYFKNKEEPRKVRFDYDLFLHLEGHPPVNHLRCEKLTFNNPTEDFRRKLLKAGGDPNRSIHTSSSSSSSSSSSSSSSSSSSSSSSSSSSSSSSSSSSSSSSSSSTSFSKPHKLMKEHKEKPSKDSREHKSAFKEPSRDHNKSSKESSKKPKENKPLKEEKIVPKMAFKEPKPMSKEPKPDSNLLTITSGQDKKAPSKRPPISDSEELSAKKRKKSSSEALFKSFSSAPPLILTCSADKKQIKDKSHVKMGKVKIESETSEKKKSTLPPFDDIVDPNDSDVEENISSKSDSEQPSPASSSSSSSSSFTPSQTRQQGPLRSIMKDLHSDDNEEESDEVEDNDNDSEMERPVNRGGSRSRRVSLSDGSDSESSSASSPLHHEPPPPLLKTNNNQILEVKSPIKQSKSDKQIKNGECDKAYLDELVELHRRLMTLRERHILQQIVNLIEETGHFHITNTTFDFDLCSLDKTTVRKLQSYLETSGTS
# UCH37 DUB inh: inhibitors of human deubiquitinating enzyme UCH37. inhibition, % (no concentration beside the values). Q9Y5K5. AID 588478. purified proteasome/UCH37, Ub-AMC cleavage fluorescence. hit rate 0.33% among 330,000;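 active means mean of two replicates above 20%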;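 further: 0% = compound-free wells with enzyme and 100% = wells lacking proteasome; stock transfer was 100 nL into about 20 µL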
# Target sequence (Q9Y5K5 whole entry, looked up): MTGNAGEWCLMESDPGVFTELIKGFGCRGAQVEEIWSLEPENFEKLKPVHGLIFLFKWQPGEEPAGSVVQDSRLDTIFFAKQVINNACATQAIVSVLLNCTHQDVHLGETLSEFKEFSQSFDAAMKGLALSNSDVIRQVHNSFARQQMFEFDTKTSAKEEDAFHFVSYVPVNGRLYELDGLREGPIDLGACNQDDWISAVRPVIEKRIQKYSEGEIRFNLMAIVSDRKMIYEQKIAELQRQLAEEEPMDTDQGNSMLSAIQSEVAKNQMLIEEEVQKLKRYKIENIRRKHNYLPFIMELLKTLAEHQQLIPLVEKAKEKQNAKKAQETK
#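 system = Proteasome-associated human UCH37 deubiquitinase | amount = 0.15 nM proteasome as dispensed | medium = pH 7.4 Tris-HCl (50 mM) with ovalbumin, ATP-MgCl2, DTT | incubation = 30 min preincubation with enzyme, 25 min cleavage at room temperature | detection = AMC fluorescence 355/460 nm | read-out basis = percent inhibition | controls = no-proteasome and no-compound wells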
# T cruzi inh: T. cruzi replication inhibition; T. cruzi beta-gal in NIH3T3, luminescence, 90 h; inhibition, % (test concentration not listed); hit rate 1.4% among 300,000;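 active means mean inhibition across valid replicates above about 55%, limit read from the data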;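 further: signal also drops with host cell toxicity which is not excluded here; 0% = plate median of DMSO wells and 100% = zero luminescence signal; higher percent means less beta-gal luminescence so fewer parasites; stock transfer was 50 nL into about 50 µL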
# Ecoli rRNA inh OD600: second read-out of Ecoli rRNA inh, no call of its own (marks repeat the call); OD600 change, %; measured here: OD600 growth;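 optical density of the mix in the first replicate; 0 = DMSO median and -100 = no signal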
# Ecoli rRNA inh RFP: second read-out of Ecoli rRNA inh, no call of its own (marks repeat the call); RFP signal change, %; measured here: RFP humanized mutant strains;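 first replicate; 0 = DMSO median and -100 = no signal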
# An asterisk follows results filed as active; i = inactive; . = no result given; & = joins results of further samples.
Compound,FGF22 binding,Bfl-1 A1 inh,Ecoli rRNA inh,Ecoli rRNA inh OD600,Ecoli rRNA inh RFP,Ecoli growth,Beta cell apopt,AF4-AF9 inh,UCH37 DUB inh,T cruzi inh
CSC1=NSC2=NC(=O)/C(=C\c3cccs3)C(=N)N12,.,-7.6,.,.,.,0.68,-1,.,17,1
COc1ccc(C2(C)NC(=O)N(CC(=O)Nc3ccc4[nH]c(=O)[nH]c4c3)C2=O)cc1 (centres undefined),i,0.5,2,8,0.0,0.68,3,5.4,3.3,-13
COc1cc(CN2CCCC(CO)(Cc3ccccc3)C2)ccc1O (centres undefined),i,-0.4,9,11,3.3,0.61,.,0.1,1.7,-7
O=C(c1ccc(Br)s1)N1CCN(c2ccccn2)CC1,i,-0.2,-6,-4,1.5,.,8,-0.6,.,5
Cc1cc(-c2nnc(SCC(=O)Nc3ccccn3)o2)no1,i,-0.2,14,-1,-1.1,0.7,-4,-0.7,3.9,-20
N#Cc1ccc(S(=O)(=O)Nc2ccc3ccccc3n2)cc1,i,1.2,5,3,4.5,0.63,2,-1.4,-6.6,-10
CCC(C)C(NC(=O)c1ccccc1NC(=O)c1ccccc1)C(=O)O (centres undefined),i,-1.5,0,3,0.6,0.73,-3,-2.2,1.9,-8
Cc1c(N)cc[n+](CC(=O)c2ccccc2)c1C,i,1.3,14,14,0.7,0.72,.,0.2,-1.3,-27
Cc1onc(-c2ccccc2)c1CNC(=O)Nc1ccc(C(F)(F)F)cc1,i,0.1,-38,-35,-1.3,0.67,2,-3.1,2.0,56*
CCOc1ccc(NC(=O)C2CC(=O)N(Cc3ccco3)C2)cc1 (centres undefined),i,-0.4,2,2,-2.9,0.73,-2,-1.1,5.4,.
COc1ccc(C(=O)Nc2ccc3c4c(cccc24)CC3)cc1,.,0.2,.,.,.,0.73,3,.,4.0,-3
Cc1ccsc1C1C2=C(CCCC2=O)Nc2ncnn21 (centres undefined),.,-0.2,.,.,.,0.69,-6,.,-0.5,-5
Cc1ccc(NS(=O)(=O)c2ccc(C(=O)N3CCCCCCC3)cc2)cc1,i,0.0,-17,-23,-0.7,0.66,10,0.1,0.2,7
Cc1nc(C(=O)NCc2ccccc2)sc1C1(C)CC(c2cccnc2)=NO1 (centres undefined),i,0.0,-10,-8,-2.2,0.66,11,-3.5,-0.3,-10
CCCC(=O)Nc1ccc(C(=O)COC(=O)C2=COCCO2)cc1,i,.,8,13,-0.8,0.67,.,-1.2,-0.6,.
Cc1ccc(C(=O)c2c3ccccc3[n+]([O-])n2CCC(N)=O)cc1,i,0.0,2,2,-6.0,.,-9,0.0,1.1,-12
Cc1ccc(NC2(C(F)(F)F)N=C(c3ccccc3)NC2=O)nc1 (centres undefined),.,-1.3,.,.,.,.,-6,.,3.1,6
O=C(O)CP(=O)(c1ccccc1)c1ccccc1,.,-0.3,.,.,.,0.72,0,.,2.6,.
Cc1ccc(-c2cc3c(nn2)-c2ccccc2C3=O)cc1,i,-7.8,14,10,-4.7,0.71,33,3.0,7.3,-16
COc1ccc(CCNC(=O)c2cnccn2)cc1,i,-0.1,3,7,0.8,0.78,-2,-10,4.6,-7
COc1ccc(Cl)cc1NC(=O)CCNS(=O)(=O)c1cccc2nonc12,i,0.5,-14,-15,1.1,0.67,-3,6.3,3.5,9
O=C(CCC1CCCC1)N1CCN(S(=O)(=O)c2ccc(Br)cc2)CC1,i,0.1,6,18,-2.0,0.7,7,-2.3,3.2,.
O=C(Nc1ccnn1C1CCN(Cc2ccc(C#CCCO)cc2)CC1)c1cccc(F)c1,i,-0.3,5,8,0.6,0.7,-2,0.0,0.1,13
COc1ccc2c(c1)c(=O)cc(C)n2CC(=O)NCc1ccco1,.,0.3,.,.,.,0.67,1,.,0.2,-6
O=C(NCCc1cccs1)C1CC(c2cccc([N+](=O)[O-])c2)=NO1 (centres undefined),i,-0.5,-5,1,-7.3,0.69,5,0.4,0.7,1
Cc1ccc(NC(=O)C(=O)NCCN2CCN(S(C)(=O)=O)CC2)cc1,i,-0.1,27,19,1.6,0.67,-1,-1.8,0.8,-8
NC(=O)C1=C[C@@H](c2ccc(C(F)(F)F)cc2)C[C@@H](OCCCCO)O1,i,0.8,-9,-3,1.7,.,-2,6.0&0.8,0.0,-22
COc1ccc(C2c3ccc(O)cc3Oc3ncn(Cc4ccco4)c(=N)c32)cc1 (centres undefined),i,-0.5,-6,-2,3.2,0.7,-3,1.1,5.4,50
CCOC(=O)N1CCN(CCC(=O)Nc2cccc(Cl)c2C)CC1,i,-0.3,7,8,0.2,0.59,2,-4.5,1.8,-11
COc1cc(NC(C)CCc2ccccc2)cc(OC)c1OC (centres undefined),i,-0.5,13,2,-0.4,0.67,-12,18,-3.5,21
CC(C)Cc1ccc(C#N)c(SCC(N)=O)n1,i,0.4,18,3,-1.7,0.67,-2,-8.9,2.2,2
O=C(CS(=O)(=O)Cc1ccccc1)Nc1nc2ccccc2s1,.,-0.5,.,.,.,0.65,-9,.,0.2,5
COc1ccc(S(=O)(=O)N2CCCC(C(=O)NCc3ccncc3)C2)cc1 (centres undefined),.,0.6,.,.,.,0.79,-1,.,-0.2,4
O=S(=O)(Cc1ccccc1)NCc1cccnc1,.,-0.6,.,.,.,0.63,8,.,1.6,3
Cc1ccc(CCC(=O)NCc2ccccc2)o1,i,-0.6,5,5,-0.5,0.72,-7,2.7,-2.0,4
O=C1Nc2ccccc2/C1=N/N=C/c1ccc(-c2ccc([N+](=O)[O-])cc2)o1,i,.,4,4,1.0,.,.,-11,.,13
O=C(c1ccc(S(=O)(=O)c2cccc(Cl)c2)c([N+](=O)[O-])c1)N1CCN(c2ccccn2)CC1,i,-1.3,3,0,-3.4,0.72,-6,1.6,-1.0,6
Cc1cc(C(=O)COC(=O)c2ccccc2O)c(C)n1Cc1cccs1,.,-8.3,.,.,.,0.71,8,.,5.7,8
CCn1c(SCC(=O)Nc2nc(-c3ccccc3)cs2)nc2c1c(=O)n(C)c(=O)n2C,.,0.3,.,.,.,0.71,3,.,2.1,0
CCCS(=O)(=O)Nc1c(C(=O)O)[nH]c2ccccc12,.,0.5,.,.,.,0.68,-8,.,-7.1,-19
COc1ccc(/C(O)=C2/C(=O)C(=O)N(Cc3cccnc3)C2c2ccco2)cc1OC (centres undefined),.,1.0,.,.,.,0.75,5,.,15,-10
Fc1ccc(CSc2ncnc3sc4c(c23)CCCC4)cc1,.,-0.4,.,.,.,0.68,1,.,0.2,9
Cc1ccc(C2CCN(C(=S)Nc3cccc(Cl)c3)C2)cc1 (centres undefined),i,-0.1,-31,-33,-16,0.68,1,2.6,5.6,-7
N#C/C(=C\c1ccc(OCCN2CCOCC2)cc1)C(=O)Nc1ccc(S(N)(=O)=O)cc1,i,-0.3,13,11,2.1,0.65,-2,1.8,0.8,3
CCc1nc(SCC(=O)Nc2ccc(Br)cn2)n[nH]1,i,0.2,2,2,-0.9,.,.,0.2,.,-10
CCOC(=O)c1c(N)sc2c1CCC(C)C2 (centres undefined),.,0.0,.,.,.,0.71,3,.,-0.9,13
COc1ccc(/C=C2/C(=O)ON=C2C)cc1Br,i,0.0,9,17,-1.2,0.68,-8,-2.7,3.1,-5
CC(=O)N1C(C(=O)O)Cc2c([nH]c3ccccc23)C1C (centres undefined),i,.,17,0,3.1,0.66,.,-3.5,1.4,-10
COc1cc(N)c(Cl)cc1C(=O)OCC(=O)N1CCCC1,i,1.0,-2,1,-0.9,0.66,-11,2.0,2.4,-11
Cc1cccc(C(=O)NNC(=O)CCCCC(=O)NNC(=O)c2cccc(C)c2)c1,i,-1.4,1,17,1.6,0.68,-1,-1.8,2.1,-6
CC(=O)Nc1cccc(C(=O)/C=C/c2cccs2)c1,.,-0.8,.,.,.,.,-3,.,1.1,-4
Cc1cccc(C)c1NC(=O)C/C(N)=N/O,.,-0.2,.,.,.,0.62,2,.,0.6,-13
CC(=O)Nc1ccc(SCCN2CC[C@@H](O)CCC2=O)cc1,i,-1.1,5,7,-2.5,.,2,-2.5,-1.5,.
Nc1nnc(CC(=O)N/N=C/c2ccc(-c3ccc(Cl)cc3Cl)o2)s1,i,0.3,-9,-8,8.2,.,0,-0.6,.,-10
CCCCCc1cc(=O)oc2c(C(CCN3CCCC(C)C3)c3ccc(N(C)C)cc3)c(OC)cc(OC)c12 (centres undefined),.,0.0,.,.,.,0.61,63,.,4.3,38
COc1ccccc1CCNC(=O)c1csc2c1CCCC2,i,0.2,-22,-39,-0.6,0.67,.,-2.1,-0.3,12
CC(C)(C)C(=O)NCc1ccc(C(=O)CSc2nnc(C3CC3)n2C2CC2)s1,i,0.6,0,8,2.0,0.69,0,-0.3,0.9,.
CCCCn1c(N)c(N(CC(C)C)C(=O)CSCC(=O)Nc2cccc(C)c2)c(=O)[nH]c1=O,i,0.0,3,1,1.9,0.67,-1,-9.6,3.7,5
CC(C)OCCCNC(=O)c1cc(-c2cccnc2)nc2ccccc12,i,0.1,-16,-13,-25,0.67,5,-0.3,0.9,-6
OCn1ncn(-c2ccccc2)c1=S,.,-0.5,.,.,.,0.8,-5,.,2.3,.

# Additional results follow:
Compound,FGF22 binding,Bfl-1 A1 inh,Ecoli rRNA inh,Ecoli rRNA inh OD600,Ecoli rRNA inh RFP,Ecoli growth,Beta cell apopt,AF4-AF9 inh,UCH37 DUB inh,T cruzi inh
O=C(COn1nnc2ccc(S(=O)(=O)N3CCOCC3)cc21)Nc1c(F)c(F)c(F)c(F)c1F,.,0.2,-20*,-16*,1.0*,0.71,-2,0.2,3.3,-25
CCOC(=O)N1CCN(C2CCCN(C(=O)c3ccccc3N(C)C)C2)CC1 (centres undefined),i,-2.6,5,5,-0.9,0.69,.,-0.3,-2.4,-8
CC(OC(=O)Cc1n[nH]c(=O)c2ccccc12)C(=O)Nc1ccc(Cl)cn1 (centres undefined),i,-0.9,0,-1,3.5,0.69,.,-0.2,4.8,4
O=C(CCOc1ccccc1)NCc1ccccc1,.,0.5,.,.,.,0.69,-3,.,2.7,-9
O=C(Nc1ccc(F)cc1F)C1CCCN1S(=O)(=O)c1cccc2nsnc12 (centres undefined),i,.,0,3,0.2,0.68,.,2.5,2.3,-4
CC(C)CN1C(=O)NC(NS(=O)(=O)c2ccc(N)cc2)(C(F)(F)F)C1=O (centres undefined),.,0.8,.,.,.,0.7,-3,.,3.0,-10
Cc1cc(NC(=O)c2ccc(C)s2)n(-c2nc3ccccc3[nH]2)n1,.,-0.1,.,.,.,0.72,27,.,-55,45
CCc1nnc(NC(=O)c2ccc(S(=O)(=O)N3CCCc4ccccc43)cc2)o1,i,0.5,-36,-29,-8.0,0.67,7,11,1.8,60*

# An excerpt, so the mix of outcomes need not match the whole.
